CapD inh – Bacillus anthracis CapD inhibitors, primary screen, biochemical, fluorescence intensity. CapD gamma-glutamyltranspeptidase (Bacillus anthracis Ames Ancestor). purified CapD enzyme, fluorescence intensity read-out; stronger effect = lower value; some hits fall short of the stated cut. z-score (concentration not given with the values). 140,000 compounds, 0.23% hits. AID 492967, 2010;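 active = z-score under -4 in either of two replicates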;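 also: stock transfer was 100 nL into about 40 µL; score is relative to mean and spread of the plate; one replicate is shown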
AID504770 – growth inhibition of E. coli YBA685, primary screen, V. cholerae RctB inhibitors. E. coli YBA685 rctB-dependent plasmid, OD600 growth, 3 h; stronger effect = lower value. 130,000 compounds, 0.27% hits. z-score (no concentration beside the values);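 active = z-score under -2 on both plates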;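 also: wells of about 30 µL received 100 nL stock; score is relative to mean and SD of the test wells; the first replicate is given; strong numbers were not always called active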
The depositor's hits bear a star; nt = no result given; & = joins results of further samples.

SMILES | CapD inh | AID504770
Cc1ccc2[nH]c(=O)c(CC(=O)O)c(-c3ccccc3)c2c1 | 46 | -0.5
N#Cc1ccccc1NC(=O)COC(=O)CC1CC2CCC1C2 (centres undefined) | -0.25 | -0.9
Cc1cc(NNC(=O)c2ccccc2O)c2cccc(C)c2n1 | nt | -0.15
Cc1ccc2nc(NNC(=O)c3ccccc3)sc2c1 | nt | 0
CC1CCCN(CCCNC(=O)c2coc3nc4ccccc4nc23)C1 (centres undefined) | 0.13 | 1.3
Cc1onc(-c2c(Cl)cccc2Cl)c1C(=O)NNc1ccccc1 | -0.11 | nt
CS(=O)(=O)c1cc(C(F)(F)F)cc(S(C)(=O)=O)c1S(C)(=O)=O | 0.34 | nt
Nc1ccc(N2CCOCC2)c(Cl)c1 | 0.91 | nt
CN(Cc1ccccc1)S(=O)(=O)c1cccc2cccnc12 | 0.87 | 0.5
CCCNC(=O)C1CNc2ccccc2O1 (centres undefined) | nt | 0.15
O=C(N/N=C/c1cc(Cl)cc(Cl)c1)c1ccc2nonc2c1 | -0.59 | nt
Cc1oc(-c2ccccc2)nc1CSc1nc2c(c(=O)[nH]1)CCC2 | -0.12 | 0.55
O=c1[nH]c(CN2CCCCC2)nc2c1oc1ccccc12 | 1.5 | -0.25
CC1=CC(C)C(C2OCC(CN3CCCCC3)O2)C(C)C1 (centres undefined) | -0.36 | -1.1
CCOC(=O)c1c(/N=C/c2c(O)ccc3ccccc23)sc2c1CCC2 | -0.12 | -0.7
CCCC(C(=O)Nc1ccc2c(c1)OCO2)c1ccccc1 (centres undefined) | nt | 1.1
O=C(COc1ccc2ccc(=O)oc2c1)NC1CCCCC1 | nt | 0
CC(=O)NC1=NC(=O)C(CC(=O)O)S1 (centres undefined) | -0.33 | -0.8
CC(=O)NCC1OCCc2ccccc21 (centres undefined) | -0.84 | -1.1
O=C1C=C(Nc2ccc(F)c(C(F)(F)F)c2)c2ccccc2C1=O | -0.8 | 2.5
Brc1ccc(-c2csc(-c3cc4c(ccc5ccccc54)oc3=Nc3ccccc3)n2)cc1 | 0.22 | nt
CC(=O)N1CCC(N(C(=O)COCc2cccnc2)C2CC2)CC1 | -0.065 | nt
CC(=O)Nc1ccc(SCC(=O)N(C)Cc2ccco2)cc1 | nt | 0.15
COc1cccc(N(C(=O)C(F)(F)F)C(C(=O)NC2CCCC2)c2cccs2)c1 (centres undefined) | 0.13 | -0.65
CCCCn1c(=O)n(C)c(=O)c2c(C(=O)OC)cc(-c3ccccc3OC)nc21 | nt | 0.3
CCC(=O)Oc1ccc(/C=N/NC(=O)COc2ccc(Cl)cc2C)cc1 | -0.87 | nt
COc1ccc(-n2nc3c(c2NC(=O)c2c(-c4ccccc4Cl)noc2C)CS(=O)(=O)C3)cc1 | -0.23 | nt
Cc1c(C#N)c(NC(=O)c2ccc(Cl)cc2)n(Cc2cccnc2)c1C | -1.5 | 0.75
O=C(Cn1cc(/C=c2/sc3nc4ccccc4n3c2=O)c2ccccc21)N1CCCC1 | -0.075 | 0.25
O=C(C1=NN(C2CCS(=O)(=O)C2)C(=O)CC1)N1CCc2ccccc21 (centres undefined) | nt | -0.6
COc1ccccc1N1CCN(C(=O)c2ccc[nH]c2=S)CC1 | -1.2 | 1.4
Cn1nnnc1SCC(=O)c1ccc2c(c1)CCC(=O)N2 | nt | -0.15
CC(=O)C1=C(C)OC(N)=C(C#N)C1c1ccc(Cl)cc1 (centres undefined) | 0.72 | nt
Cc1ccc(C(=O)c2cnc3cc4c(cc3c2N2CCC(C(N)=O)CC2)OCO4)cc1C | -1.5 | -1.1
Cc1ccc(S(=O)(=O)N2CCOCC2)c(C)c1 | -0.85 | -1.1
O=C(O)CCC(=O)Nc1nccc2cccnc12 | 5.3 | nt

2 neighbouring records already listed:
SMILES | CapD inh | AID504770
Brc1ccc(-c2csc(-c3cc4c(ccc5ccccc54)oc3=Nc3ccccc3)n2)cc1 | 0.22 | nt
CC(=O)N1CCC(N(C(=O)COCc2cccnc2)C2CC2)CC1 | -0.065 | nt

Continued:
SMILES | CapD inh | AID504770
CC1CCCCC1n1c(SCc2cc(=O)n3ccsc3n2)nnc1-c1cccnc1 (centres undefined) | nt | -0.3
O=c1ccc(-c2ccccc2)nn1CCN1CCCCC1 | nt | -0.7
OCc1cc2c(s1)CCCC2 | -0.3 | -0.05
CC(=O)Nc1cc2c(ccc3ccccc32)oc1=O | 18 | -0.25
CS/C(=N\S(=O)(=O)c1cccs1)NC(=O)c1ccccc1 | nt | 0.6
CN(C)Cc1ccccc1CNC(=O)c1cc(Cl)nc(Cl)c1 | nt | 0.1
COc1nc(N2CCCCCC2)nc(N2CCCCCC2)n1 | nt | 0
O=C(O)C1CCN(C(=O)c2cc3sccc3n2Cc2ccc(F)cc2)CC1 | -0.97 | -0.9
Cc1cc(S(=O)(=O)CC#N)c(C)cc1Cl | -0.3 | nt
O=S1(=O)CCC(NS(=O)(=O)c2ccccc2)C1 (centres undefined) | nt | -0.55
Cc1csc(=O)n1CCN1C(=O)NC2(CCC(C)CC2)C1=O (centres undefined) | nt | 0.15
O=S(=O)(Cc1cccc(F)c1)c1c[nH]c2ccccc12 | -0.42 | -0.7

Rewritten with tabs: 4 of the compounds above.
SMILES	CapD inh	AID504770
Cc1ccc(S(=O)(=O)N2CCOCC2)c(C)c1	-0.85	-1.1
O=C(O)CCC(=O)Nc1nccc2cccnc12	5.3	nt
CC1CCCCC1n1c(SCc2cc(=O)n3ccsc3n2)nnc1-c1cccnc1 (centres undefined)	nt	-0.3
O=c1ccc(-c2ccccc2)nn1CCN1CCCCC1	nt	-0.7

Remaining list, next part.
SMILES | CapD inh | AID504770
O=C(NCc1ccco1)c1ccc(Oc2cc(Cl)cc(Cl)c2)o1 | 0.43 | -0.8
O=S(=O)(c1ccc(-c2csc(-c3cccnc3)n2)cc1)N1CCCCC1 | -1.3 | 1.3
NC(=O)COC(=O)c1cc(-c2ccccc2)c(N2CCOCC2)s1 | nt | -0.5
O=S(=O)(c1ccccc1)c1nc(Nc2ccccc2N2CCOCC2)sc1Cl | 0.075 | 0.85
COc1ccc2c(c1)N(C(=O)CN1C(=O)CCC1=O)C(C)(C)c1ssc(=S)c1-2 | 0.32 | nt
COc1ccc(C2CC(C(F)(F)F)n3nc(C(=O)N4CCN(c5ccccc5)CC4)c(Cl)c3N2)cc1OC (centres undefined) | -0.56 | nt
CC(N=Cc1ccccc1O)c1ccccc1 (centres undefined) | -0.17 | 0.05
CN(C)c1ccc(CN2CCCCC2COC(=O)NCc2csc3ccccc23)cc1 (centres undefined) | -1.1 | nt
COc1ccc(N2CCN(C(=O)CSc3nc4[nH]ncc4c(=O)n3-c3ccc(Cl)cc3Cl)CC2)cc1 | -0.14 | nt
CC(C)n1cc(-c2ccc(C(=O)NCc3ccncc3)cn2)cn1 | 3.8 | nt
CCCCCCCCNC(=O)C1OC2OC(C)(C)OC2C2OC(C)(C)OC12 (centres undefined) | -0.49 | nt
COc1cc(OC)cc(OC)c1 | nt | -0.75&0

The closing five compounds of the part above open the next one:
SMILES | CapD inh | AID504770
CN(C)c1ccc(CN2CCCCC2COC(=O)NCc2csc3ccccc23)cc1 (centres undefined) | -1.1 | nt
COc1ccc(N2CCN(C(=O)CSc3nc4[nH]ncc4c(=O)n3-c3ccc(Cl)cc3Cl)CC2)cc1 | -0.14 | nt
CC(C)n1cc(-c2ccc(C(=O)NCc3ccncc3)cn2)cn1 | 3.8 | nt
CCCCCCCCNC(=O)C1OC2OC(C)(C)OC2C2OC(C)(C)OC12 (centres undefined) | -0.49 | nt
COc1cc(OC)cc(OC)c1 | nt | -0.75&0
COc1ccccc1N=C(NOCc1ccc(Cl)cc1Cl)c1nonc1N | -0.07 | nt
CCOc1ccc(N2Cc3ccccc3C2=N)cc1 | -0.14 | -0.3
COC(=O)c1ccc(C)c(NC(=O)CCn2[nH]c(=O)ccc2=O)c1 | nt | -0.2
O=C(Cn1cnc2c(cnn2-c2ccccc2)c1=O)N1CCCC1 | -0.05 | 0.35
COc1cccc(C(=O)N2CCN(Cc3cccc4ccccc34)CC2)c1 | -0.86 | -1
Cc1cc(C(=O)O)nn1-c1ccccc1 | 0.12 | -0.95
CCOC(CNc1nc(OC)cc(OC)n1)(OCC)c1ccccn1 | -0.5 | nt
CN1CCC(N(C)C(=O)c2cc3sc4ccccc4c3s2)CC1 | 0.82 | 1.3
COc1ccc2nc3oc(C(=O)N4CCC(N5CCCCC5)CC4)cc3cc2c1 | -0.12 | -0.6
CC(C)Oc1ccc(CN2CCC(N3C(=O)c4c(C(C)C)nc5ccccc5c4C3=O)C2)cc1 (centres undefined) | 0.025 | nt
Cc1nn(-c2ccccc2)c2sc(C(=O)OCC(=O)C(C)(C)C)cc12 | nt | 1.4
COc1ccc(C2C(C#N)=C(N)N(c3cccc([N+](=O)[O-])c3)C3=C2C(=O)CC(C)(C)C3)cc1 (centres undefined) | -0.04 | nt
O=C(O)C1C2C=CC(C2)C1C(=O)N1CCC(Cc2ccccc2)CC1 (centres undefined) | 0.14 | -0.45
N#CCC(=O)N/N=C/c1c[nH]c2cnc(OCc3ccccc3)cc12 | 3.9 | nt
CN(C)CCN(Cc1ccccc1)C(=O)c1cc2ccc3cccnc3c2[nH]1 | -0.27 | -0.05
O=C(NC1CCCCNC1=O)c1ccc(N2CCOCC2)nc1 (centres undefined) | 0.38 | 1.2
Cc1cc(C)cc(N=Cc2cccc(OCc3ccccc3)c2)c1 | -0.47 | -1.4
Cc1cccc(N(C)C(=O)c2cnccc2C(F)(F)F)c1C | 0.08 | 0.3
COc1ccc(C2NC(=O)c3c(sc4c3CCCC4)N2)cc1 (centres undefined) | -0.42 | nt
CCC(=O)Nc1ccc(C(=O)CSc2ncc(C#N)c(N)n2)cc1OC | nt | -0.45
COc1ccc(CCNc2ncnc3sc(C)c(C)c23)cc1OC | 0.21 | 0.05
O=C(O)c1ccccc1NC(=O)c1cc2ccccc2oc1=O | -1 | -0.5
Cc1ccc(C(=O)CSc2nnc(-c3cccs3)n2C)o1 | -0.79 | -0.45
Cc1cc(NS(=O)(=O)c2cccs2)n[nH]1 | -0.22 | -0.2
COc1ccc(C(=O)NNC(=O)OCC#Cc2ccccc2)cc1 | -0.49 | nt
CCN(CC)CCN1C(=O)C(=O)/C(=C(/O)c2cnn(-c3ccccc3)c2C)C1c1cccs1 (centres undefined) | -1.2 | 1
Cc1c(NC2=NC3(CCCCC3)Cc3ccccc32)c(=O)n(-c2ccccc2)n1C | -0.04 | 0
Clc1ccc(CSc2cc3c(nn2)-c2ccccc2CC3)cc1Cl | 0.29 | nt
COC(=O)C1=C(C)N(Cc2ccco2)C(=O)/C1=C\c1cc(C)n(-c2ccc(OC)c(Cl)c2)c1C | -0.63 | 1.3
CC(=O)Nc1nc(C)c(-c2csc(Nc3ccc(S(=O)(=O)Nc4nc(C)cc(C)n4)cc3)n2)s1 | 5.2 | nt
COc1ccc(CNC(=O)CN2CCNC(=O)C2)cc1OC | nt | -0.15
COc1cccc(N/C(SC)=C(/C#N)C(=O)NCc2cccs2)c1 | -0.38 | nt
Nc1ccc(NC2=NCCCS2)cc1 | nt | -0.2
NS(=O)(=O)c1ccc(NC(=O)C(F)(F)F)cc1 | 0.015 | -0.45
COc1ccc(C(=O)O)cc1Nc1nc2ccccc2n2c(C)nnc12 | 8.9 | -0.25
COc1ccc(NC(=O)CSc2nc3c(oc4ccccc43)c(=O)n2C)cc1OC | -0.33 | 1.3
O=C(c1ccc(C(F)(F)F)cc1)N1CCC(c2nnc(-c3ccccc3)o2)CC1 | -0.12 | nt
O=C(CSC1CCCCC1)N1CCCC1 | 0.99 | -0.05
COc1ccc(C)c2c1CCCC2=O | 1.5 | 0.6
COc1cccc(C2C(C#N)=C(N)Oc3n[nH]c(-c4ccc5c(c4)OCO5)c32)c1OC(=O)N1CCOCC1 (centres undefined) | 0.33 | nt
CCN(CC)S(=O)(=O)c1cc2c3c(c1)c(C)cc(=O)n3CCC2 | nt | -0.25
COC(=O)C1=C(C)NC2=C(C(=O)CC(c3ccc(OC)c(OC)c3)C2)C1c1ccc(Cl)cc1Cl (centres undefined) | 21 | nt
CC(C)OP(C)(=O)C(=O)Oc1ccccc1 (centres undefined) | nt | 0.05
CCC(Sc1nc2ccsc2c(=O)n1C1CC1)C(=O)Nc1cccc(C)c1 (centres undefined) | -0.49 | 1.9
CCCN1C(=O)c2ccccc2NC1c1ccc(OC)c(COc2ccc(Cl)cc2)c1 (centres undefined) | 20 | nt
CCOC(=O)c1c(NC(=O)c2nc3n(n2)C(C(F)F)CC(C)N3)sc2c1CCCC2 (centres undefined) | nt | 0.7
Nc1nnc(-c2ccccc2)c(-c2ccccc2)n1 | -1&-0.58 | -0.3&0.6
CC(O)(C#CC12CC3CC(CC(C3)C1)C2)c1cccs1 (centres undefined) | -0.3 | -0.9
CC1CCN(C(=O)Cn2c(=O)n(Cc3ccc(F)cc3)c(=O)c3ccccc32)CC1 | nt | -0.25
Fc1ccc(-c2nnc(SCc3ncc(-c4ccccc4)o3)n2CC2CCCO2)cc1 (centres undefined) | nt | -0.3
O=C(Oc1c([N+](=O)[O-])cc(C(F)(F)F)cc1[N+](=O)[O-])c1c(F)cccc1Cl | -0.99 | nt
Cc1cc(-c2ccccc2)n2ncc(C#N)c2n1 | nt | 0.5
COc1ccc(Oc2ccc([N+](=O)[O-])cc2C(=O)O)cc1 | -1.1 | nt
Cc1ccccc1NC(=O)C(C)c1c(C)n[nH]c1C (centres undefined) | -0.71 | 0.1
O=C(CSc1nc2ccccc2n1-c1ccccc1)NCC1CCCO1 (centres undefined) | -0.36 | 0.8
CCOc1ccc(N2CC(O)(c3ccc(OC)cc3F)[N+]3=C2SCCC3)cc1 (centres undefined) | -0.2 | nt
CCc1ccc(NC(=O)CSc2nc3c(oc4ccccc43)c(=O)n2CC)cc1 | nt | -1.2

From PubChem

Only part of the results is shown; count on the stated rates, not on these rows.
